# Ecoli growth = inhibitors of Escherichia coli growth; OD600, 23 h; hits give low values; OD600 absorbance (concentration not given with the values); 0.21% of 330,000 active; AID 1053175;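 active = OD600 absorbance below the run mean of sample wells minus 3.6 SD, in any replicate, cut at about 0.56 in these data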;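 note: stock transfer was 300 nL into about 60 µL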
# UCH37 DUB inh = blocks the human deubiquitinase UCH37 | Q9Y5K5 | purified proteasome/UCH37, Ub-AMC cleavage fluorescence | inhibition, % (concentration not given with the values) | 0.33% of 330,000 active;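 active = mean of two replicates above 20%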;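 note: 0% = compound-free wells with enzyme and 100% = wells lacking proteasome; stock transfer was 100 nL into about 20 µL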
# Target sequence (Q9Y5K5 whole entry, looked up): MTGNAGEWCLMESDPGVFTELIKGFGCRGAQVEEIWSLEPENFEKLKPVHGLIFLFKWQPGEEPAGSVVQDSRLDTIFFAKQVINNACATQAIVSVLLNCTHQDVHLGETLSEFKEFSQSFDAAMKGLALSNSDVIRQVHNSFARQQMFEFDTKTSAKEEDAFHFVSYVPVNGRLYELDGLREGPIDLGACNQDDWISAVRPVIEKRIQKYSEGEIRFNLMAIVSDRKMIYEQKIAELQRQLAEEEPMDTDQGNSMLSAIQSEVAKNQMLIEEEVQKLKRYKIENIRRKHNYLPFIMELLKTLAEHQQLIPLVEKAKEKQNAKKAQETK
#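 Assay system: Proteasome-bound UCH37. Buffer or medium: pH 7.4 Tris-HCl (50 mM) with ovalbumin, ATP-MgCl2, DTT. Incubation: 30 min preincubation with enzyme, 25 min cleavage at room temperature. Measured by: fluorescence, ex 355 nm, em 460 nm. Read-out basis: percent inhibition. Control set: wells without proteasome as full block, compound-free enzyme plus substrate as uninhibited.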
# Beta cell apopt = beta cell apoptosis inhibition. INS-1E cytokine-induced death, ATP luminescence, 48 h; percent of positive-control rescue, neutral wells zero. protection from apoptosis, % (concentration not given with the values). 0.8% of 300,000 active;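 active = all replicates at 75% or more, or half of them and the mean; inconclusive = half reach 75% but not the mean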;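 note: 0% = cytokine-treated negative control wells and 100% = positive control rescue; higher means more ATP so stronger rescue from cytokine killing; wells of about 40 µL received 100 nL stock; the first replicate is given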
# A1 inh = inhibitors of the anti-apoptotic protein A1, read as caspase activation. MEF A1-2A-BIM cells, Caspase-Glo 3/7 luminescence, 3 h; percent of clofoctol response, vehicle zero. caspase activation, % (concentration not given with the values). 0.066% of 330,000 active. AID 2462;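 active = over half of replicate activation scores above 10%, or exactly half above 10 with the replicate mean above 10; inconclusive = replicate mean below 10 yet half the replicates above 10; inactive = over half of replicates below 10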;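 note: wells of about 30 µL received 50 nL stock; many hits fall short of the cut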
# T cruzi repl = T. cruzi replication inhibition; T. cruzi beta-gal in NIH3T3, luminescence, 90 h; inhibition, % (concentration not given with the values); 1.4% of 300,000 active; AID 1885;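 active = mean inhibition across valid replicates above about 55%, limit read from the data; inconclusive = mean below that limit but half or more replicates reach it; inactive = mean below it, under half of replicates reach it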;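 note: signal also drops with host cell toxicity which is not excluded here; 0% = plate median of DMSO wells and 100% = zero luminescence signal; higher percent means less beta-gal luminescence so fewer parasites; stock transfer was 50 nL into about 50 µL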
# MLL AF4-AF9 inh = MLL-AF4/AF9 protein interaction inhibition. AID 651704. P42568. inhibition, % at 10 µM. 0.47% of 350,000 active. AlphaScreen, biotin-AF4 peptide binding to FLAG-AF9;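 active = every replicate reaching a set inhibition limit, whatever the replicate mean, cut at about 25% in these data; inconclusive = mean inhibition reaches that limit but some replicates miss it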;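 note: 0% = plate neutral control median and 100% = total signal loss; the record names both 10 and 1 µM as test concentration; the first replicate is given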
# Target sequence (P42568 whole entry, looked up): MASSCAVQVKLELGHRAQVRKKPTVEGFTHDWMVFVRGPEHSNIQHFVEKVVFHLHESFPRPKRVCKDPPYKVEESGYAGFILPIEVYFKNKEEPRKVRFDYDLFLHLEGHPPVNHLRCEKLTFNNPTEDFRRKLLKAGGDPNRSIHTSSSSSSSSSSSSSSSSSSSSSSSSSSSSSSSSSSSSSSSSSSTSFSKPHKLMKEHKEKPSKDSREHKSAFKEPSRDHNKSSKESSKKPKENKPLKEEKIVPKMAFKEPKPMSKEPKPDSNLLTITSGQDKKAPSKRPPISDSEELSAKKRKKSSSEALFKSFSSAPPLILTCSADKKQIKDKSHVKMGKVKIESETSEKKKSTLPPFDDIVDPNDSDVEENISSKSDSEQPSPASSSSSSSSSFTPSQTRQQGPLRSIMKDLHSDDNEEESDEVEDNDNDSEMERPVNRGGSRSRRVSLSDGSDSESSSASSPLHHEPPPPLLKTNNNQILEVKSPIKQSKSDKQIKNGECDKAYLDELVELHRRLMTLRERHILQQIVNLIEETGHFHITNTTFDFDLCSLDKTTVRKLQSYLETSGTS
# FGF22 binding = FGF22 (human) thermal shift binding | 1.5% of 340,000 active | recombinant FGF22 thermal shift, SYPRO orange fluorescence; percent of sucrose octasulfate shift, DMSO zero | calls only at 9.99 µM | Q9HCT0;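 active = melting point raised past a set limit in the mean and every replicate; inconclusive = no clear call; three in four hits are not shown here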
# Target sequence (Q9HCT0 whole entry, looked up): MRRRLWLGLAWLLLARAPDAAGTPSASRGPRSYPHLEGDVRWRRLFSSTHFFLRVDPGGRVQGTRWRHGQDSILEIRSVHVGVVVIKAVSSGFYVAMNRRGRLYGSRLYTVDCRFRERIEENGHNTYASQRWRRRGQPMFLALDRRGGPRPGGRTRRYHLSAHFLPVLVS
# Ecoli rRNA inh = inhibitors of bacterial rRNA selective over humanized ribosomes | E. coli WT GFP vs humanized-ribosome RFP mutants, fluorescence, 24 h; hits give low values; DMSO median 0, no signal -100 | GFP signal change (wild-type ribosome), % (test concentration not listed) | 1.6% of 350,000 active;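 active = significant combined selectivity score with lowered wild-type GFP, culture density cut under 30%, mutant RFP and density less affected; inactive = any of these conditions unmet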; note: one replicate is shown; some compounds called inactive have numbers as strong as hits
# Ecoli rRNA inh OD600 = second read-out of Ecoli rRNA inh, no call of its own (marks repeat the call); OD600 change, %; measured here: OD600 growth;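 optical density of the mix in the first replicate; 0 = DMSO median and -100 = no signal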
# Ecoli rRNA inh RFP = also measured in Ecoli rRNA inh; calls as there; RFP signal change, %; measured here: RFP humanized mutant strains;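 first replicate; 0 = DMSO median and -100 = no signal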
# * marks the source's active call; other numbers are inactive results; i = inactive; ? = inconclusive; . = not tested or not shown. An excerpt; rates above refer to the full screens.
SMILES	Ecoli growth	UCH37 DUB inh	Beta cell apopt	A1 inh	T cruzi repl	MLL AF4-AF9 inh	FGF22 binding	Ecoli rRNA inh	Ecoli rRNA inh OD600	Ecoli rRNA inh RFP
O=c1oc2ccccc2c(Nc2ccc3ncccc3c2)c1[N+](=O)[O-]	0.72	3.0	-2	1.1	7	-0.1	i	18	4	7.3
CCN(CC)c1ncc(C#N)c(N)n1	0.67	2.9	-5	-0.1	-5	-3.3	i	1	5	-0.2
Cc1ccc(C)c(COC(=O)c2cc(S(=O)(=O)N3CCCCC3)ccc2N2CCOCC2)c1	0.71	-0.7	8	-0.1	36	-11	i	-1	-2	0.3
CN(CC(=O)Nc1cccc(F)c1)C(=O)C1CC(=O)N(CCc2ccccc2)C1 (centres undefined)	0.68	5.2	-3	0.6	-3	-6.8	i	2	12	1.4
O=C1OCCC1Sc1nnc(-c2ccc3c(c2)OCO3)n1-c1ccccc1 (centres undefined)	0.75	-0.3	-8	?	2	.	.	-7	-1	-5.1
CC(=O)N1CCN(c2ccc(NCc3cccc(C)c3)cc2)CC1	0.69	1.4	-2	-0.8	.	13	i	-3	10	15
CCOc1ccc(N(CC(=O)NCCCOC)S(C)(=O)=O)cc1	0.72	-7.6	-1	0.1	0	.	.	.	.	.
Cn1c(=O)[nH]c(=O)c2c1nc(CN1CCN(c3ccc(F)cc3)CC1)n2CCCc1ccccc1	0.67	-0.2	-1	1.1	20	.	.	.	.	.
COc1ccccc1C(CNC(=O)C(C)Oc1ccc(Br)cc1)N1CCCC1 (centres undefined)	0.66	2.3	-3	-1.2	13	3.1	i	0	0	0.4
COC(=O)C1=C(NC(=O)c2ccc(C)c(C)c2)CCS1	0.7	-101	-2	-3.2	-27	.	.	.	.	.
CCC(=O)N1CCc2cc(S(=O)(=O)CCC(=O)N3CCN(c4ccc(F)cc4)CC3)ccc21	0.66	3.5	-2	0.7	5	-5.6	i	6	16	-2.3
O=C(Cc1cccs1)N1CCCC(c2nc(-c3ccc(S(=O)(=O)N4CCCC4)cc3)no2)C1 (centres undefined)	0.64	3.6	4	0.1	26	.	.	.	.	.
CCC(OC(=O)c1nsc(Cl)c1Cl)C(=O)NC(C)(C)CC (centres undefined)	0.68	0.1	-4	0.8	-2	-1.7	i	1	0	-5.3
Cc1cc(C)c2[nH]c(=O)c(C(c3nnnn3CC3CCCO3)N3CCC(C)CC3)cc2c1 (centres undefined)	0.71	-14	-16	-1.0	25	.	.	.	.	.
COC(=O)CCC(=O)Nc1ccc(S(=O)(=O)N2CCCCCC2)cc1	0.71	-0.3	2	0.1	-8	.	.	.	.	.
Cc1ccc(NC(=O)COC(=O)c2ccc(CN3CCCC3=O)cc2)cc1C	0.67	2.1	.	.	.	-5.5	i	3	3	-2.3
Cc1ccccc1C(=O)c1cccn1CC(=O)NCc1ccccc1Cl	0.69	1.4	-2	0.6	-9	9.1	i	0	0	2.0
COc1ccc2c3n([n+]([O-])c2c1)CCN=C3c1ccc(Cl)cc1	0.7	-0.5	10	-0.2	.	6.0	i	-7	-7	-6.7
CC1CCCCN1Cc1ccc(N)cc1 (centres undefined)	0.68	0.7	-4	0.2	-5	.	.	.	.	.
CCNC(=O)Nc1cc2nc(C)n(Cc3ccc(Br)cc3)c2nc1C	0.71	0.7	3	1.2	9	.	.	.	.	.
CCOc1ccccc1N=C1NC(=O)CS1	0.68	3.0	3	0.2	-10	.	.	.	.	.
COCCNC(=O)c1ccc(N(C)S(=O)(=O)c2ccc(OC)c(OC)c2)cc1	0.76	0.6	1	0.4	2	.	.	.	.	.
CCn1ncc(Br)c1C(=O)Nc1ccc(OC(F)(F)F)cc1	0.68	3.3	-1	0.5	-1	0.0	i	-1	0	-1.7
O=C(Cn1cnc2c(nc3n2CCCCC3)c1=O)Nc1cccc(C(F)(F)F)c1	0.68	3.7	-8	-0.3	-16	-0.3	i	-6	0	-1.7
Cc1c(NC(=S)NC(=O)COc2ccccc2)c(=O)n(-c2ccccc2)n1C	0.71	5.2	5	0.9	-8	0.4	i	2	9	-3.3
OCCN1CCN(C(=S)c2ccc(Cl)cc2)CC1	0.7	0.4	-6	0.5	-2	.	.	.	.	.
CC(C)(O)c1[nH]c2ccc(C#N)cc2c1C(C)(C)O	.	2.1	1	0.7	-19	46*	i	-4	12	7.2
O=C1S/C(=C\c2cccs2)C(=O)N1c1ccc(O)cc1	0.68	2.6	7	-1.1	-5	3.5	i	-2	1	-6.3
COc1ccc(O)c(-c2nc(N)nc(N)n2)c1	0.63	5.0	-9	-3.6	.	2.5	i	2	9	2.1
CCC(=O)N1CCCc2cc(S(=O)(=O)N3CCN(c4ccccn4)CC3)ccc21	0.72	-0.2	-4	-0.5	-17	.	.	.	.	.
N#Cc1ccsc1NC(=O)CCS(=O)(=O)c1ccccc1	0.7	2.1	-3	0.0	-16	-0.9	i	12	-1	0.4
Cc1cc(C)n(-c2c(F)c(F)c(CN3CCCCC3)c(F)c2F)n1	0.72	2.9	-2	0.4	20	.	.	.	.	.
COC(=O)Cn1c(=NC(=O)c2nc3ccccc3s2)sc2cc(S(C)(=O)=O)ccc21	0.66	-29	4	0.1	11	-0.7	i	12	8	11
CCc1ccc(-n2c(Cc3ccccc3)n[nH]c2=S)cc1	0.7	3.3	-3	-0.2	1	-5.6	.	-17	-18	-2.4
CCOc1ccc(C2C3=C(CCCC3=O)Nc3nc(C(F)(F)F)nn32)cc1OC (centres undefined)	0.71	-2.7	-1	0.3	2	.	.	.	.	.
O=C(Cc1ccccc1F)Nc1cc(S(=O)(=O)N2CCCC2)ccc1Cl	0.63	-0.3	2	-0.9	.	-0.5	i	.	.	.
COc1cc2cc(C(=O)N/N=C/c3ccc(F)cc3)[nH]c2cc1OC	.	.	17	0.1	-5	6.4	i	-39	-75	-8.6
CC(C)CN(C(=O)c1cc(=O)[nH]c2ccccc12)c1c(N)n(Cc2ccccc2)c(=O)[nH]c1=O	0.6	3.6	-4	-0.3	-6	-12	i	6	8	-1.8
COC(=O)c1cc(Br)c(=O)n(-c2cc(C)on2)c1	0.74	-1.6	-1	0.1	-2	.	.	.	.	.
O=C(c1cccs1)N1CCCN(c2ncnc3scc(-c4ccccc4)c23)CC1	0.69	1.9	.	0.4	11	4.2	i	-40	-36	5.3
CS(=O)(=O)c1ccc2nc(NC(=O)CN3CCCCCC3)sc2c1	0.69	3.3	-6	0.1	9	.	.	.	.	.
Cc1cc(C)cc(OCCn2nnc3ccccc32)c1	0.71	0.6	-5	-0.1	18	-0.8	i	-13	-14	-2.7
CSc1nc2nccc(-c3ccc4c(c3)OCO4)n2n1	0.72	-39	-2	0.3	5	1.0	i	-1	-6	1.2
O=C(/C=C/c1ccc(Cl)cc1Cl)N1CCN(c2ccc([N+](=O)[O-])c(N3CCOCC3)c2)CC1	0.7	8.7	-2	1.0	-5	.	.	.	.	.
O=C(CC1COc2ccccc2O1)NCc1ccccc1 (centres undefined)	0.66	4.0	-4	2.4	10	-68	i	3	0	4.0
CC(C)C(c1nnnn1C1CCCCC1)N1CCc2ccccc21 (centres undefined)	0.72	-0.1	14	-0.3	20	.	.	.	.	.
CSc1ccccc1COC(=O)Nc1ccccc1C	0.68	-0.4	-3	-0.2	0	-2.4	i	17	6	0.6
Cc1ccc(Cl)cc1N1CCN(Cc2nc3c(c(=O)[nH]c(=O)n3C)n2CCc2ccccc2)CC1	0.73	0.3	29	-1.2	23	.	.	.	.	.
COc1ccc(C(=O)OCC(=O)Nc2cc(C)c(C)cc2[N+](=O)[O-])cc1	0.69	2.0	3	-0.7	9	-5.5	i	8	4	-0.2
COc1ccc(C(C(=O)Nc2ccc(F)cc2)N(C(=O)Cn2nnc3ccccc32)C2CC2)cc1 (centres undefined)	0.69	1.0	2	-0.3	1	.	.	.	.	.
CN(C)CCN1C(=O)C(=O)/C(=C(/O)c2ccc(S(=O)(=O)N3CCOCC3)cc2)C1c1ccc(F)cc1 (centres undefined)	0.73	7.2	-6	0.9	2	-2.0	i	4	18	0.8
CCOc1cccc(N2C(=O)CC(N(CCc3ccc(OC)c(OC)c3)C(=O)CC)C2=O)c1 (centres undefined)	0.7	-1.4	-2	0.4	-11	1.8	.	.	.	.
CCn1nc(C)c(CNC(=O)CC2C(=O)NCCN2CC(C)(C)C)c1C (centres undefined)	0.7	-0.9	0	0.1	-4	-1.3	i	21	16	6.8
Cc1[nH]c2ccccc2c1/C=N/Nc1ccccn1	.	.	.	.	1	26*	i	-3	-1	-0.9
COC(=O)[C@]1(C)N[C@H](CN(C)S(=O)(=O)c2ccc(OC(F)(F)F)cc2)[C@@H]2C(=O)N(Cc3ccccc3)C(=O)[C@@H]21	0.71	5.0	.	.	.	2.9	i	-21*	-11*	-1.7*
CC(=O)c1cccc(OCc2cc(C(=O)N(C)C(C)c3ccccn3)no2)c1 (centres undefined)	0.69	2.6	0	0.7	-5	-5.1	i	4	0	0.6

# The list goes on:
SMILES	Ecoli growth	UCH37 DUB inh	Beta cell apopt	A1 inh	T cruzi repl	MLL AF4-AF9 inh	FGF22 binding	Ecoli rRNA inh	Ecoli rRNA inh OD600	Ecoli rRNA inh RFP
O=C(Nc1ccc(NC(=O)C2CC2)nc1)c1ccccn1	0.71	5.4	5	-6.0	11	.	.	.	.	.
CCCOc1ccccc1-n1sc2c(c1=S)-c1cc(OC)cc3c1N(C(=O)C3=O)C2(C)C	0.72	7.2	4	-0.6	-4	.	.	.	.	.
Cc1ccccc1OCC(=O)Nc1cccc(C(=O)O)c1	0.65	0.1	.	.	2	-2.1	i	-1	-2	-0.6
COC(=O)c1sccc1NC(=O)CN1CCN(c2ccc(F)cc2)CC1	0.74	1.9	-5	0.0	7	.	.	.	.	.
CCN(C(=O)COC(=O)C(c1ccccc1)c1ccccc1)c1c(N)n(Cc2ccccc2)c(=O)[nH]c1=O	0.71	2.3	.	.	.	1.1	i	-5	-4	3.3
COc1cccc(C(=O)COC(=O)CCC(=O)c2ccccc2)c1	0.65	-0.8	-2	2.6	7	-6.8	i	6	7	2.5
Cc1ccc(NC(=O)C2CC(=O)N(c3ccc4c5c(cccc35)CC4)C2)cc1 (centres undefined)	0.72	3.4	-11	-0.7	-9	.	.	.	.	.
O=C(NCCc1c[nH]c2ccccc12)c1cccc(Br)c1	0.64	5.7	-3	0.8	-19	-0.4	i	-23*	-17*	3.4*
COc1ccc(-c2cc3nc4ccccc4n3c(N)c2C#N)cc1	0.73	-166	3	-0.4	36	-12	i	4	11	-3.4

# Bioassay records deposited in PubChem by several laboratories.
